Screening data (PubChem)
NPYLR7 ag = agonists of mosquito NPYLR7 receptor, primary screen, cell-based, Aedes aegypti, calcium fluorescence, mosquito biting behavior; Aedes aegypti neuropeptide Y-like receptor 7 (NPYLR7); HEK293T NPYLR7/Galpha15, GCaMP6s calcium fluorescence; activation, % at 10 µM; actives 0.15% (n = 270,000); in the data active means activation above about 40%;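 further: 0% = vehicle and 100% = reference agonist at the receptor; some compounds past the cut are filed as inactive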
NPYLR7 ag max-min = further read-out of NPYLR7 ag, marked with its call; activation, %; measured here: Max-Min RFU normalised activation; some inactives read as strong as hits;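 span of the calcium signal over five minutes; 0% = vehicle and 100% = native peptide agonist; compound fluorescence can raise it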
An asterisk follows results filed as active; & = joins results of further samples. Some of the compounds tested; rates above refer to the full screens.

Order of values: NPYLR7 ag max-min | NPYLR7 ag
#1 CN(CC1CC1)S(=O)(=O)c1ccc(S(=O)(=O)C(F)F)cc1
→ -4 | 4
#2 Cc1ccccc1CC(=O)Nc1c(C)cccc1-c1nc(C(C)C)no1
→ 14 | 0
#3 N#Cc1ccc(CSc2nnc(NC(=O)c3cccc(Br)c3)s2)cc1
→ 7 | -2
#4 COc1ccc(S(=O)(=O)NC(C)(C)C)cc1
→ -2 | -9
#5 Cn1cc(NC(=O)NCC2CCCO2)c2ccccc21 (configuration not stated)
→ -6 | 3
#6 CCCCc1ccc(NC(=O)c2cc(=O)c(OC)c[nH]2)cc1
→ 3 | 5
#7 CC1CCc2nc(NC(=O)/C=C\c3ccccc3)sc2C1 (configuration not stated)
→ -1 | 0
#8 COc1ccc(C2=NOC(CN(Cc3cccc(F)c3)C(=O)C3CC3)C2)cc1OC (configuration not stated)
→ -2 | -8
#9 O=C(CCc1ccco1)Nc1ccc(Cl)cc1Cl
→ 1 | 0
#10 COC(=O)C1=C(O)/C(=C\c2ccccn2)SC1=Nc1ccccc1F
→ -4 | -5
#11 CCN(C(=O)C(C)Oc1ccc(C)cc1)C(C)CS(=O)(=O)CC (configuration not stated)
→ -3 | -2
#12 COc1cc(C(=O)N(CCCN2C(=O)c3cccc4cccc(c34)C2=O)c2ccc(C)cc2)cc(OC)c1OC
→ -1 | -1
#13 CCCCC(C(=O)Nc1cc(C)on1)N1CCCC1Cn1cncn1 (configuration not stated)
→ 16 | -1
#14 O=C(NC1(c2ccc(F)cc2)CCC1)c1cc(Cl)c2c(c1)OCO2
→ -16 | -12
#15 COc1ccc(S(=O)(=O)N2CCCC(C)C2)cc1N1CCN(C(=O)C(OC(C)=O)c2ccccc2)CC1 (configuration not stated)
→ 12 | 15
#16 CCOC(=O)c1c(NC(=O)CCCCC(=O)OC)c(-c2cccc(F)c2)cn1C
→ 14 | 16
#17 Cc1c(C(=O)NCc2cccs2)sc(=O)n1Cc1ccc(OC(F)(F)F)cc1
→ 0 | 2
#18 CN(C)CCCn1ccc2nc(N3CCN(c4ccccc4)CC3)ncc2c1=O
→ 7 | 4
#19 O=C(CCC1CCN(C(=O)C2CC23CCC3)CC1)N1CCC(Cc2ccccc2)CC1 (configuration not stated)
→ 4 | 4
#20 Cc1nc(C(C)C)cc(N(C)Cc2ncccc2C)n1
→ -3 | -2
#21 CCOC(=O)CN(C(=O)c1cnccn1)[C@@H]1C[C@@H]2CO[C@H](C(C)C)C[C@@H]2C1
→ 37 | 40
#22 CCOC(=O)NC1CCCN(C(=O)Cn2c(C)cc3ccccc32)C1 (configuration not stated)
→ 3 | 7
#23 CCCNC(=O)C1(NC(=O)/C=C/c2csc(C)n2)CCCCC1
→ 9 | 10
#24 COc1ccc(NC(=O)c2sc(=O)n(Cc3ccc(C)cc3)c2C)cc1
→ 1 | 7
#25 CCOC(=O)c1cc(-c2cccc(NC(=O)COc3ccccc3)c2)n(-c2ccccc2F)n1
→ 1 | 4
#26 CN(C)S(=O)(=O)c1ccc(Oc2ncnc3ccccc23)cc1
→ 4 | 9
#27 COC(=O)c1coc(CN2CCC(N3CCCC3=O)CC2)n1
→ 11 | 24
#28 Cc1ccc(-n2nc3c(c2NC(=O)C24CC5CC(CC(C5)C2)C4)CSC3)cc1
→ 1 | -3
#29 CN1CCN(c2ncccc2CNC(=O)c2cccc(-c3ncc[nH]3)c2)CC1
→ -4 | 1
#30 COc1cc(-c2nn(CN3CCN(c4ncccn4)CC3)c(=S)o2)cc(OC)c1OC
→ 1 | 3
#31 C[C@H](CCC(=O)O)[C@H]1CC[C@H]2[C@@H]3C(=O)C[C@@H]4CC(=O)CC[C@]4(C)[C@H]3CC(=O)[C@]12C
→ -6&-4 | -2&-2
#32 Cc1ccc(S(=O)(=O)N(Cc2cccnc2)Cc2nccn2Cc2ccc(F)cc2)cc1
→ 14 | 5
#33 CC(C)CN1CCN(c2cc(NC3CC3)nc(N)n2)CC1CCO (configuration not stated)
→ -4 | -1
#34 COc1ccc(NC(=O)CSc2nc(N)c(NC(=O)c3ccccc3)c(=O)[nH]2)cc1
→ -6 | -2
#35 CCS(=O)(=O)Nc1ccc(-c2ccc(OC)nn2)cc1
→ 5 | 4
#36 Cc1ccc(C2OCCCC2CNC(=O)Cc2ccc(C)nc2)cc1 (configuration not stated)
→ 7&0 | 7&-1
#37 O=S(=O)(Nc1nccs1)c1ccc(Cl)cc1
→ 7 | 13
#38 COc1ccccc1Oc1c(CN(CC(O)CN2CCOCC2)CC2CC2)c(C)nn1-c1ccccc1 (configuration not stated)
→ 6 | 4
#39 CC(OC(=O)Cn1cnc2c1c(=O)n(C)c(=O)n2C)C(N)=O (configuration not stated)
→ 0 | -1
#40 CSc1ccc(NC(=O)C2(C)CCN2C(=O)Cc2ccc(C(C)C)cc2)cc1 (configuration not stated)
→ 3 | 5
#41 Cc1c(C(=O)Nc2ccc(S(=O)(=O)N(C)C)cc2)oc2ccccc12
→ -1 | 0
#42 Cc1ccc(-c2c3c(n(CC(=O)N4CCC(NC(=O)C(F)(F)F)CC4)c2C)C(=O)CCC3)cc1
→ 6 | 6
#43 COc1ccc(CCNC(=O)c2cc(-c3ccccc3OC)nc3cc(-c4ccccc4)nn23)cc1OC
→ 15 | 19
#44 O=C(c1cn(Cc2ccc(F)cc2)nc1OCc1ccc(F)cc1)N1CCOCC1
→ -6 | -6
#45 CCCCNC(=O)c1ccc2c(c1)NC(=O)C1CCCN21 (configuration not stated)
→ 1 | 2
#46 CCCCn1c(=O)[nH]c(=O)c2c1nc(CSc1nnc(-c3ccco3)o1)n2CCC
→ -12 | -3
#47 Cc1nn(C)cc1COC(=O)c1c(Cl)cnn1C
→ 1 | 2
#48 CCN(CC)C(=O)c1ccc(-c2nccc(-c3ccc(C)nc3C)n2)cc1
→ -12 | -8
#49 COc1cccc(CN(CCN2CCOCC2)C2CCC(O)CC2)c1 (configuration not stated)
→ 6 | 0
#50 COc1ccc(CCN2CCC(CN(C)Cc3cc(OC)ccc3F)CC2)cc1
→ -4 | -3
#51 Cc1ccc(S(=O)(=O)N2CCN(C(=O)OC(C)C)CC2)cc1
→ -10 | -3
#52 CCN(CC)CCNc1nc2c(c(=O)[nH]c(=O)n2C)n1Cc1ccccc1Cl
→ 3 | 2
#53 Cc1oc(-c2ccco2)nc1CN(C)Cc1noc(CC(C)C)n1
→ -4 | 0
#54 Cc1nc(C(C)N(C)Cc2ccc(Sc3nncn3C)o2)c(C)s1 (configuration not stated)
→ 1 | 1
#55 CCOc1cccc(-c2ccccc2-c2nnc(C)o2)c1
→ -2 | -3
#56 O=C(NC[C@H]1CCCO1)c1cncn1-c1cccc(-c2ccccc2C(F)(F)F)c1
→ 1 | -1
#57 COC(CNC(=O)NC1CCN(Cc2ccccc2C)CC1)c1ccccc1 (configuration not stated)
→ -9 | -8
#58 Cc1cc(C)n(C(=O)c2sccc2S(=O)(=O)N(C)c2ccccc2)n1
→ -7 | -4
#59 O=C(CSc1ccc2nnc(-c3ccncc3)n2n1)NC1CCCCC1
→ -2 | -1
#60 COc1ccc(CNC(=O)Cn2c3ccc(F)cc3c3ncn(Cc4ccccc4)c(=O)c32)cc1
→ -9 | -5

Further records
Order of values: NPYLR7 ag max-min | NPYLR7 ag
#61 C=CCc1cccc2cc(C(=O)NCc3ccccc3)c(=N)oc12
→ -15 | -9
#62 C#CCn1c(-c2ccccc2)nc2ccccc21
→ 0 | 0
#63 CCCn1c(=O)c2sc(N3CCCC3)nc2n(CC(=O)N2CCOc3ccc(C)cc32)c1=O
→ -3 | -2
#64 CCCCNC(=O)N1CCN(c2cc(Cl)nc(SCC(=O)NCc3ccccn3)n2)CC1C (configuration not stated)
→ 19 | 2
#65 CC1C(=O)N(c2cccc(F)c2)CCN1C(=O)c1cccc(F)c1 (configuration not stated)
→ 1 | -1
#66 Cc1cc(C(=O)NC2(c3ccc4c(c3)OCCO4)CCCC2)on1
→ -1 | 2
#67 O=S1(=O)CCCN1Cc1ccc(Br)s1
→ 3 | 5
#68 C=CCn1c(SCC(=O)N2CCNC2=O)nc2scc(C3CC3)c2c1=O
→ -5 | -3
#69 Nc1nnc(-c2cccc(N=Cc3ccccc3O)c2)o1
→ 0 | 3
#70 Cc1ccc(N2CC(C)Cn3c2nc2c3c(=O)n(CC(C)C)c(=O)n2C)cc1 (configuration not stated)
→ -1 | 1
#71 COc1ccc(CN(Cc2ccc(C(O)(c3cccc(F)c3)c3cccc(F)c3)o2)C2CC2)cc1
→ 2 | 3
#72 Cc1cc(N(C)C)ccc1NC(=O)N(C)Cc1cccc(O)c1
→ -27 | -25
#73 CCC1=CC2CN(C1)Cc1c([nH]c3ccccc13)[C@@](C(=O)OC)(c1cc3c(cc1OC)N(C)[C@H]1[C@@](O)(C(=O)OC)[C@H](OC(C)=O)[C@]4(CC)C=CCN5CC[C@]31[C@@H]54)C2 (some centres not stated)
→ 8 | 2
#74 CC(C)=CC1C(C(=O)N(C)CC(=O)NC(C)(C)C)C1(C)C (configuration not stated)
→ 5 | 7
#75 Cc1ccc(N2CCOC2=O)c(-c2cc(N)nc3[nH]ccc23)c1
→ -2 | 4
#76 O=C(Nn1cnc2c(cnn2-c2ccc(F)cc2)c1=O)C1CC(=O)N(c2ccccc2)C1 (configuration not stated)
→ 10 | 14
#77 C=CCN(Cc1cccc(OC)c1)C(=O)C(C)N1CCN(C)CC1 (configuration not stated)
→ 3 | 3
#78 Cc1cccc(NC(=O)CNC(=O)CSc2ccc(F)c(F)c2)c1C
→ -1 | -1
#79 CC(=O)NCN1CCN(CNC(C)=O)CC1
→ -16 | -12
#80 O=C(NC1C[C@@H]1c1ccccc1)c1cncn1-c1cccc(-c2cccc3c2sc2ccccc23)c1 (some centres not stated)
→ 1 | 12

Looked up above.
For NPYLR7 ag max-min, compound 73 reads 8
For NPYLR7 ag max-min, compound 64 reads 19

Going on with the list.
Order of values: NPYLR7 ag max-min | NPYLR7 ag
#81 Cn1cc(CCC(=O)N2CCCC(C(=O)c3ccc(Oc4ccccc4)cc3)C2)cn1 (configuration not stated)
→ -1 | 8
#82 O=C1c2cccc(O)c2CCN1Cc1ccc(Cl)cc1
→ 2 | 1
#83 COc1ccccc1N1CCN(C(=O)Cn2nnnc2CN2CCOCC2)C(C)C1 (configuration not stated)
→ 4 | 3
#84 CCn1c(=O)n(CC(=O)NCCC(=O)Nc2ccccn2)c2ccccc21
→ 13 | 0
#85 CC1(C(=O)NCc2ccc(Cl)cc2)CCN1C(=O)C1(c2ccccc2)CCCC1 (configuration not stated)
→ 7 | 9
#86 CCOC(=O)c1c(NC(=O)c2cccc(Cl)c2)sc(C(=O)Nc2ccccc2C)c1C
→ 0 | -5
#87 NS(=O)(=O)c1ccc2c(c1)Cc1cc(S(N)(=O)=O)ccc1-2
→ 51 | 1
#88 CCN(Cc1nc2ccccc2c(=O)[nH]1)C(=O)c1ccc(F)cc1
→ -6 | -2
#89 O=C(COC(=O)c1cccs1)c1cccc([N+](=O)[O-])c1
→ -9 | -11
#90 COCCN=c1scc(-c2ccc(Cl)cc2Cl)n1N=Cc1ccc2c(c1)OCCO2
→ 3 | 5
#91 O=C(NCCCNC(=O)[C@H]1CCCN1C(=O)Cc1ccccc1)c1ccc(F)cc1
→ 25 | 21
#92 Nc1nc(-c2cc3ccccc3oc2=O)cs1
→ -11 | -4
#93 CCOC(=O)C1CCCN(C(=O)c2cnn(-c3ccc(Cl)cc3)c2C(F)(F)F)C1 (configuration not stated)
→ 13 | 2
#94 Cc1cc(C(=O)CN2CC(C)OC(C)C2)c(C)n1-c1ccc(F)c(Cl)c1 (configuration not stated)
→ -4 | 2
#95 O=C(c1cscn1)N1CCCC(N2CCN(c3cccc(C(F)(F)F)c3)CC2)C1 (configuration not stated)
→ 0 | 2
#96 Cc1cccc(C(=O)OCCN2C(=O)c3cccc4c(N5CCCCC5)ccc(c34)C2=O)c1
→ -17 | -10
#97 Cc1ccsc1CN(CCN(C)C)Cc1ccc2nonc2c1
→ -8 | -5
#98 CCS(=O)(=O)Oc1cccc(CN(CC(C)C)C(=O)Nc2ccc(OC)cc2OC)c1
→ 8 | 13
#99 Cc1ccnc(SCc2cc(=O)c(OC(=O)c3cc([N+](=O)[O-])ccc3Cl)co2)n1
→ -12 | -12
#100 CC(=O)NCCNc1nc2cc(-c3ccc(C(=O)N4CCOCC4)cc3)sc2c(=O)n1C
→ 2 | 5
#101 CCOc1nc2cccc(C(=O)OC(C)OC(=O)OC3CCCCC3)c2n1Cc1ccc(-c2ccccc2-c2nn[nH]n2)cc1 (configuration not stated)
→ -26 | -20
#102 COc1c(F)cccc1C(=O)NCCc1nnc2n1CCNCC2
→ 4 | 5
#103 CC(Sc1nnc(C2CC2)n1C1CC1)C(=O)N(C)C1(C#N)CCCCC1 (configuration not stated)
→ 3 | 2
#104 Cc1cnc2c(c1N1CCCC1)c(=O)n(C)c(=O)n2C
→ -2 | 3
#105 O=S(=O)(N=P(C1CCCCC1)(N1CCOCC1)N1CCOCC1)c1ccccc1
→ -8 | -4
#106 CCCc1nn(-c2ccccc2F)c(Cl)c1C(=O)O
→ -1 | 4
#107 COc1ccc(C2CC(=O)C3=C(C2)N=C(C)C(C(=O)OCC(C)C)C3c2ccccc2OC)cc1 (configuration not stated)
→ -9 | -1
#108 CCCC(=O)NCCc1cc2ccc(C)cc2[nH]c1=O
→ 33 | 2
#109 Cc1ccccc1N1C(=O)CSC1c1ccccc1NC(=O)C(Cl)c1ccccc1 (configuration not stated)
→ 11 | 10
#110 Fc1cccc(-c2nnn3c2nc(NCc2ccc(Cl)cc2)c2ccccc23)c1
→ -12 | -8
#111 O=C(NC12CC3CC(CC(C3)C1)C2)c1ccc(Nc2cccc(C(F)(F)F)c2)nc1
→ -21 | -12

Whole records, looked up by structure:
`CCOc1nc2cccc(C(=O)OC(C)OC(=O)OC3CCCCC3)c2n1Cc1ccc(-c2ccccc2-c2nn[nH]n2)cc1` (configuration not stated) is entered as NPYLR7 ag max-min: -26; NPYLR7 ag: -20
`Cc1ccccc1N1C(=O)CSC1c1ccccc1NC(=O)C(Cl)c1ccccc1` (configuration not stated) is entered as NPYLR7 ag max-min: 11; NPYLR7 ag: 10
`O=S(=O)(N=P(C1CCCCC1)(N1CCOCC1)N1CCOCC1)c1ccccc1` is entered as NPYLR7 ag max-min: -8; NPYLR7 ag: -4
